# Source: PubChem BioAssay
# Vif TR-FRET: inhibitors of Vif binding to APOBEC3G peptide, primary screen, biochemical, TR-FRET, GST-Vif 1-94, biotin-A3G peptide, dose response retest (AID 1117319); Virion infectivity factor (Human immunodeficiency virus type 1 group M subtype B (isolate …; TR-FRET GST-Vif / biotin-A3G peptide binding; higher % means a stronger effect; test concentration not given here; strong numbers were not always called active; inhibition, %, or IC50 in µM where a hit was titrated; 260,000 tested, 0.57% active;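 active = above the screen mean plus three standard deviations and confirmed in dose response; inconclusive = results disagree or hit not tested in dose response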;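 also: Vif residues 1-94 fused to GST binding biotinylated APOBEC3G peptide 110-148; 0% = full assay without inhibitor and 100% = GST in place of GST-Vif; retest series ran down from 100 µM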
# RanGTP-Imp inh: inhibitors of RanGTP-importin-beta interaction, primary screen, biochemical, FRET, CFP-Ran, YFP-importin-beta, homogeneous | cell-free CFP-Ran/YFP-importin-beta FRET ratio | 300,000 tested, 1.1% active | inhibition, % (test concentration not listed) | Ran GTPase (GTP-bound) - importin-beta complex | AID 2216, 2009;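 active = most replicates above 15%; inconclusive = exactly half above 15%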;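 also: 0% = DMSO wells and 100% = Ran loaded with GDP instead of GTP; wells of about 40 µL received 100 nL stock; the first replicate is given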
# Beta cell apopt: inhibitors of cytokine-induced beta cell apoptosis, primary screen, luminescence | INS-1E cytokine-induced death, ATP luminescence, 48 h; percent of positive-control rescue, neutral wells zero | 300,000 tested, 0.8% active | AID 435005, 2010 | protection from apoptosis, % (no concentration beside the values);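 active = all replicates at 75% or more, or half of them and the mean; inconclusive = half reach 75% but not the mean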;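 also: 0% = cytokine-treated negative control wells and 100% = positive control rescue; higher means more ATP so stronger rescue from cytokine killing; wells of about 40 µL received 100 nL stock; the first replicate is given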
# rRNA inh HTS: reduced GFP signal of wild-type E. coli, primary screen, bacterial rRNA inhibitor project, GFP/RFP fluorescence, OD600, single point; E. coli WT GFP vs humanized-ribosome RFP mutants, 24 h; active compounds read low; DMSO median 0, no signal -100; GFP signal change (wild-type ribosome), % (no concentration beside the values); 350,000 tested, 1.6% active;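 active = significant combined selectivity score with lowered wild-type GFP, culture density cut under 30%, mutant RFP and density less affected; inactive = any of these conditions unmet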; also: one replicate is shown; some compounds called inactive have numbers as strong as hits
# T cruzi inh: inhibitors of intracellular T. cruzi growth, primary screen, luminescence, NIH3T3 host cells; T. cruzi beta-gal in NIH3T3, 90 h; inhibition, % (concentration not given with the values); 300,000 tested, 1.4% active; AID 1885, 2009;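 active = mean inhibition across valid replicates above about 55%, limit read from the data; inconclusive = mean below that limit but half or more replicates reach it; inactive = mean below it, under half of replicates reach it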;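 also: signal also drops with host cell toxicity which is not excluded here; 0% = plate median of DMSO wells and 100% = zero luminescence signal; higher percent means less beta-gal luminescence so fewer parasites; stock transfer was 50 nL into about 50 µL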
# AF4-AF9 inh: inhibitors of AF4 peptide binding to AF9, primary screen, biochemical, AlphaScreen, biotin-AF4 peptide, FLAG-AF9, single point | inhibition, % at 10 µM | 350,000 tested, 0.47% active | AID 651704, 2012;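 active = every replicate reaching a set inhibition limit, whatever the replicate mean, cut at about 25% in these data; inconclusive = mean inhibition reaches that limit but some replicates miss it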;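 also: 0% = plate neutral control median and 100% = total signal loss; the record names both 10 and 1 µM as test concentration; the first replicate is given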
# Target sequence (P42568 whole entry, looked up): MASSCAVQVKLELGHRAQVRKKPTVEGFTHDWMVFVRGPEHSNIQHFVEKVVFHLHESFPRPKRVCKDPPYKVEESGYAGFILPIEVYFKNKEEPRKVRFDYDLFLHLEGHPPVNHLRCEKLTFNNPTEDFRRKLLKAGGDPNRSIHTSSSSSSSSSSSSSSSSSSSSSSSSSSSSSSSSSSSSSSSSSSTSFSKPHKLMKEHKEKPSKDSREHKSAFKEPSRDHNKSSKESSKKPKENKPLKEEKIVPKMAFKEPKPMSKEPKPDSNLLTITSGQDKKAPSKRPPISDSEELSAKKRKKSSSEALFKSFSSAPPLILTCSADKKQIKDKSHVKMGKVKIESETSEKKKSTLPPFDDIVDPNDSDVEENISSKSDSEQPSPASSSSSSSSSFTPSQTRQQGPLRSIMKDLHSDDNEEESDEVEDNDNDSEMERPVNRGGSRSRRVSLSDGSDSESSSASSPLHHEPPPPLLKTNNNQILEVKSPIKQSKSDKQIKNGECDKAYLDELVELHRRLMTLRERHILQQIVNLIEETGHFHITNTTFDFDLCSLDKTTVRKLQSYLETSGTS
# Calb FLC: C. albicans growth inhibition with fluconazole, primary screen, CaCi-2 strain, Alamar Blue fluorescence. C. albicans CaCi-2 (fluconazole-resistant clinical isolate) + fluconazole, 48 h. growth inhibition, % (concentration not given with the values). 300,000 tested, 0.57% active;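 active = most replicates above 75%; inconclusive = exactly half above 75%; inactive = most below 75%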;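 also: all wells also contain fluconazole at 8 µg/ml as a sub-toxic cotreatment; 0% = median of DMSO wells and 100% = median of geldanamycin control wells; wells of about 8 µL received 7.5 nL stock; the first replicate is given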
# Bfl-1 A1 inh: caspase 3/7 activation in MEF A1-2A-BIM cells, primary screen, A1 inhibitor project, cell-based, luminescence, HTS; Caspase-Glo 3/7 luminescence, 3 h; percent of clofoctol response, vehicle zero; caspase activation, % (concentration not given with the values); 330,000 tested, 0.066% active; AID 2462, 2010;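 active = over half of replicate activation scores above 10%, or exactly half above 10 with the replicate mean above 10; inconclusive = replicate mean below 10 yet half the replicates above 10; inactive = over half of replicates below 10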;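 also: wells of about 30 µL received 50 nL stock; many hits fall short of the cut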
# rRNA inh HTS OD600: second read-out of rRNA inh HTS, no call of its own (marks repeat the call); OD600 change, %; measured here: OD600 growth;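 optical density of the mix in the first replicate; 0 = DMSO median and -100 = no signal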
# rRNA inh HTS RFP: recorded beside rRNA inh HTS, whose call it bears; RFP signal change, %; measured here: RFP humanized mutant strains;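 first replicate; 0 = DMSO median and -100 = no signal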
# * = called active by the depositor; ? = inconclusive; · = no result given; & = joins results of further samples. An excerpt; rates above refer to the full screens.
SMILES,Vif TR-FRET,RanGTP-Imp inh,Beta cell apopt,rRNA inh HTS,rRNA inh HTS OD600,rRNA inh HTS RFP,T cruzi inh,AF4-AF9 inh,Calb FLC,Bfl-1 A1 inh
Fc1ccc(C(c2nnnn2C2CCCCC2)N2CCCC2)cc1 (stereo unspecified),4%,3.9,-1,5,13,1.1,-13,-1.8,23,-0.4
COc1cc(OC)cc(C(=O)NCC(=O)NC(C)CCc2ccccc2)c1 (stereo unspecified),·,2.3,·,-3,-13,0.4,-2,-1.9,2,1.2
COc1cc(OC)cc(C(=O)Nc2ccccc2-c2nnn(CC(=O)Nc3cc(C)on3)n2)c1,11%,-2.9,3,9,14,-0.6,8,-0.1,4,-0.2
Cc1ccccc1-c1nnn(CC(=O)N(C)CC(=O)Nc2ccccc2C(F)(F)F)n1,-1%,2.0,·,-3,2,1.2,-9,-1.8,1,1.5
COC(=O)c1cc(NS(=O)(=O)c2ccc(N3CCCCCC3)c([N+](=O)[O-])c2)cc(C(=O)OC)c1,8%,-4.3,-9,-13,-17,3.1,18,·,5,-0.3
COc1cccc(S(=O)(=O)NC2CCN(C#N)C2)c1 (stereo unspecified),·,·,-3,6,13,-1.8,·,0.8,·,-0.6
CCCc1nc(NC2CCCCC2)c(C#N)c2c1COC(C)(C)C2,15%,4.6,3,6,4,7.1,18,-9.7,-11,-0.1
CSc1ccc(/C=N/n2c(C)nnc2C)cc1,-3%,-1.5,-6,5,3,-1.1,-9,0.1,16,0.4
COc1ccc(/C=N/NC(=O)c2nc(Cl)c(Cl)c(N)c2Cl)cc1COc1ccc(F)cc1F,-9%,?,3,·,·,·,·,·,0,0.5
O=C(Nc1cc(-c2nc3ncccc3o2)ccc1Cl)c1ccco1,·,7.0,-13,9,23,4.9,-11,-2.7,17,2.0
CCCOc1ccc(-c2cn3ccccc3n2)cc1[N+](=O)[O-],24%,0.6,8,·,·,·,13,·,4,-5.3
Cc1ccc(Cl)cc1N1CCN(C(=O)c2ccc3c(c2)CCN3S(C)(=O)=O)CC1,·,3.5,·,-42,-68,-1.4,17,6.3,-3,·
CC(=NC1CC1)C1=C(O)c2ccccc2C1=O,-8%,0.7,-6,·,·,·,-2,·,-6,-2.8
CCN(CC)CCNC(=O)C1c2ccccc2C(=O)N(CCOC)C1c1ccc(F)cc1 (stereo unspecified),1%,2.2,-7,·,·,·,-5,·,15,0.2
O=S(=O)(O)c1cccc(N=Nc2c(O)ccc3ccccc23)c1,?,-6.3,1,-33*,-4.5*,-0.2*,-13,5.6,18,-7.4
O=C(CNc1ccccc1Cl)N/N=C1\CCCc2ccccc21,4%,6.7,-2,0,6,-1.4,-14,-1.1,-4,-0.7
Cc1ccc(C)c(-n2nnnc2SCC(=O)c2c(N)n(C)c(=O)n(C)c2=O)c1,·,1.9,4,5,5,-2.5,-6,-2.8,-65,-0.4
Cc1ccccc1Nc1nc(N)nc(CSc2nnc3sc4ccccc4n23)n1,9%,-2.2,7,·,·,·,-2,·,-26,-0.6
O=S(=O)(c1ccc(Cl)cc1Cl)n1ccc2cccnc21,4%,?,-2,12,6,-6.2,-11,-2.7,-5,0.5
O=C(Nc1nnc(-c2ccccc2)s1)c1ccc(F)cc1,-10%,2.1,·,18,16,1.6,-11,-2.7,16,-0.7
COc1ccc2oc(C(=O)OCC(=O)N3CC(C)OC(C)C3)c(C)c2c1 (stereo unspecified),8%,-1.4,·,5,-2,-1.0,-13,-1.1,-1,0.3
Cc1nnc(SCc2ccon2)n1-c1ccccc1,-4%&-3%,-5.1,0,·,·,·,-8,·,4,0.3
CC(=O)OC(Cn1nc(C)cc1C)c1ccccc1 (stereo unspecified),12%,-3.3,-6,·,·,·,-8,·,-2,0.4
Cc1ccc(CSc2nnc3ccc(-c4ccncc4)nn23)cc1,-5%,2.3,4,-15,-20,7.5,12,5.2,16,-0.4
CCOC(=O)c1c(-c2ccc(C)o2)csc1N,?,-5.7,0,·,·,·,-1,·,0,-0.4
CCCCN(C)CCNC(=S)Nc1ccc2nc(N3CCN(CC)CC3)cc(C)c2c1,5%,0.7,0,-1,-5,2.6,?,13,-7,0.0
Cc1cc(F)ccc1S(=O)(=O)NCC(c1cccnc1)N1CCc2ccccc21 (stereo unspecified),·,3.9,-3,2,-2,-3.9,42,19,3,0.1
COc1ccc(-c2cc(-c3cc(F)ccc3O)[nH]n2)cc1OC,7%,-0.1,4,-33*,2.2*,-17*,·,7.8,?,-3.8
COc1ccc(NC(=O)c2cc(F)cc(F)c2)cc1S(=O)(=O)N1CCCCC1,-2%,·,3,13,-24,0.4,·,3.7,·,-0.4
COC(=O)Nc1nc2ccc(C(=O)c3cccs3)cc2[nH]1,·,5.6,·,·,·,·,-9,0.0,-1,0.0
CNCCCNC(=O)c1ccc(/C=N/O)nc1,26%,-3.9,-1,22,7,0.0,-10,-1.9,-25,0.7
CCN(Cc1ccncc1)Cc1ccc(Br)cc1,·,-2.9,-8,2,-4,-1.3,22,-4.0,-7,1.0
CC(OC(=O)c1ccc(OCC2CCCO2)cc1)C(=O)N(C)Cc1ccccc1 (stereo unspecified),-1%,-0.9,-1,-1,-5,0.7,-4,-1.4,2,0.0
O=C(Cn1cnc2c(nnn2Cc2ccccc2)c1=O)Nc1ccc2c(c1)OCCO2,·,-2.8,-3,3,9,-2.8,-10,-0.7,2,-0.6
Cc1ccc([N+](=O)[O-])cc1NC1CC(O)C(CO)O1 (stereo unspecified),0%,-1.2,-21,-24,2,11,-23,-0.3,20,0.1
Cc1ccc(NC(=O)C(C)OC(=O)c2n[nH]c3ccccc23)cc1 (stereo unspecified),3%,·,2,-5,-8,3.1,-8,0.0,-3,0.0
CCn1cc(C(=O)NCCc2ccccc2)c(=O)c2cc(F)c(N3CCN(C)CC3)cc21,0%,0.1,4,·,·,·,-3,·,4,-0.5
CC(C)(C)N(Cc1ccccc1)C(=O)COC(=O)c1ccc([N+](=O)[O-])o1,-4%,·,0,·,·,·,·,6.3,·,-0.5
CN(C)CC1CCCCC1OC(=O)/C=C/c1ccccc1 (stereo unspecified),-9%,2.6,-5,9,8,-4.0,15,-0.2,-8,0.3
COc1ccc(NC(=S)N/N=C/c2ccc(F)c(F)c2)cc1,19%,-2.1,2,1,4,-0.7,-14,-4.4,-4,-0.3
CC(NC(=O)c1ccc(CS(C)(=O)=O)cc1)C1CC2CCC1C2 (stereo unspecified),·,-1.6,-5,11,10,4.2,-3,-0.1,-11,0.6
O=C(CN1CCN(c2ccc([N+](=O)[O-])cc2)CC1)Nc1nccs1,-2%,?,6,·,·,·,-23,·,10,-0.6
CCN(CC)C(=O)N(CC)Cc1ccccc1,7%,0.7,-9,·,·,·,-17,0.4,0,1.7
O=C(c1ccncc1)N1CCN(S(=O)(=O)c2cccc([N+](=O)[O-])c2)CC1,-3%,1.6,-6,-8,2,-3.4,26,-2.3,4,-0.7
COc1ccccc1NC(=O)COc1ccc(/C=N/n2cnnc2)cc1OC,-1%,-1.6,-2,9,7,2.3,-20,·,-1,0.3
CC(=O)N1c2ccc(S(=O)(=O)NCCC(=O)N3CCCC(C)C3)cc2CC1C (stereo unspecified),·,-0.4,·,4,1,0.9,8,0.8,-30,1.8
O=C(O)C(Cc1cn[nH]n1)=NO,-4%,2.6,-5,·,·,·,-7,·,1,-0.2
COc1cccc(-c2cccc(NC(=O)C3CCN(Cc4nccs4)CC3)c2)c1,4%,2.1,-3,-4,0,1.2,-19,0.3,-11,0.4
CCCOc1ccc(NC(=O)C2CC(=O)N(C(C)C)C2)cc1 (stereo unspecified),-9%,-1.3,-4,·,·,·,5,·,-2,0.5
O=C(CSc1nnc(-c2cccnc2)o1)Nc1ccccc1F,4%,-1.0,5,2,7,-7.0,-11,-1.1,-5,0.4
# (cont.)
SMILES,Vif TR-FRET,RanGTP-Imp inh,Beta cell apopt,rRNA inh HTS,rRNA inh HTS OD600,rRNA inh HTS RFP,T cruzi inh,AF4-AF9 inh,Calb FLC,Bfl-1 A1 inh
O=C(COC(=O)C1CCN(S(=O)(=O)c2ccc3c(c2)OCCO3)CC1)Nc1ccc(C(F)(F)F)cc1,-5%,0.0,-7,·,·,·,10,·,22,-0.3
CCOc1ccc(N(CC(=O)NCc2ccccc2)S(C)(=O)=O)cc1,5%,-2.4,3,·,·,·,-2,·,8,0.5
Cc1cc2[nH]c(=O)c(=O)[nH]c2cc1S(=O)(=O)N(C)C1CCCCC1,3%,1.5,13,-3,-4,0.9,-12,-2.3,-2,0.4
CCn1c(SCc2ccccc2)nnc1C1CCCCC1,·,-4.7,·,·,·,·,12,·,-7,0.1
CNc1nc(SC)n(C)c(=O)c1N=O,9%,10.0,-5,·,·,·,-6,·,?,-0.4
Cn1c(=O)c2cc(S(=O)(=O)NC(C(=O)Nc3cccc(F)c3)c3ccccc3)ccc2n(C)c1=O (stereo unspecified),3%,?,-12,-2,-3,1.0,7,-0.5,0,1.5
O=C1NCCN1C(=O)N(c1ccccc1)c1ccccc1,2%,6.4,1,·,·,·,-15,·,-6,0.3
COc1ccccc1NC(=O)CSc1nnc(-c2ccco2)o1,-8%,-7.0,3,·,·,·,-13,·,-7,-0.3
O=C(Nc1ccccc1N1CCCCC1)c1cccc(Cl)c1,·,-3.8,-8,-7,-9,-3.8,-6,-1.5,5,0.2
O=C(Nc1ccccc1N1CCOCC1)C1=NN(c2c(F)c(F)cc(F)c2F)C(=O)CC1,-3%,·,7,-7,2,-0.4,·,2.1,·,-0.3
Cn1cc(S(=O)(=O)N2CCCC2)cc1C(=O)NCc1ccccc1Cl,·,3.0,-2,-5,-10,-8.3,1,-1.3,-11,1.2
O=S(=O)(Nc1ccc(O)c(CN2CCCCC2)c1)c1ccccc1,4%,2.3,6,·,·,·,-26,·,-3,0.4
O=C1C=CC(=O)N1c1ccc(N2CCCCC2)cc1,·,·,2,15,4,-4.2,46,6.4,·,0.2
CCc1ccc(NC(=O)CSc2nc3n[nH]c(C)c3c(=N)n2-c2cccc(OC)c2)cc1,-4%,2.8,15,·,·,·,9,·,-8,-1.1
